Bioassay records (PubChem)
MT1-MMP act inh: blockers of MT1-MMP proenzyme processing, primary screen, HT1080 RFP-PRO-GFP cells, GFP/RFP fluorescence | Matrix metalloproteinase-14 (Homo sapiens), P50281 | GFP/RFP ratio fluorescence, overnight; percent of plate control window, DMSO zero | GFP/RFP ratio change, % at 20 µM | hit rate 0.061% among 360,000;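 active = GFP/RFP ratio change of at least 30% with cell ATP level not reduced by more than half and red fluorescence within 50% of control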; note: strong numbers were not always called active
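Assay system: HT1080 cells carrying an RFP-PRO-GFP reporter | Dosing: Single dose of 20 µM compound, 1% DMSO final | Incubation: Cells overnight before dosing, compound overnight, 37 °C, 5% CO2 | Evaluation: GFP/RFP fluorescence ratio | Control set: DMSO and RFP-L50D-GFP cell wells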
Rce1 inh: yeast Rce1p protease inhibitors, primary screen, biochemical, fluorescence, cell-free homogeneous | CAAX prenyl protease 2 (Saccharomyces cerevisiae (strain ATCC 204508 / S288c)), Q03530 | yeast membranes, quenched prenylated peptide cleavage fluorescence | calls only | hit rate 0.27% among 290,000;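 active = fall in fluorescence gain of 50% or more versus controls, with final raw signal at or below 3038400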;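 note: plate controls were neutral control wells for no effect and wells lacking membranes for full effect; tested at 10 µM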
Target sequence (Q03530 whole entry, looked up): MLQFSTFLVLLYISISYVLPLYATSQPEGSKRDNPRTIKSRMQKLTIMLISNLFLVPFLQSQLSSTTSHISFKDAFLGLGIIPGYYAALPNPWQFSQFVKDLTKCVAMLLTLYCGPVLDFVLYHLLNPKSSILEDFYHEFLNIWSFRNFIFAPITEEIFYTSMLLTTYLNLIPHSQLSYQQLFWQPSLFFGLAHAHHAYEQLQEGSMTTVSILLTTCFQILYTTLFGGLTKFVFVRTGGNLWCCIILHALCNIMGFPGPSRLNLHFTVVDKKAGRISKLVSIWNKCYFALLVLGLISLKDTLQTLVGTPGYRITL
Yeast UUG start: modulators of yeast start codon fidelity, primary screen, whole organism, S. cerevisiae, single point, plate reader | S. cerevisiae UUG-firefly luciferase reporter, luminescence/redox ratio | activity score, % at 18.7 µM | AID 602363, 2012 | hit rate 0.13% among 350,000;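 active = replicate mean at a twofold rise or more, about +100% in these data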;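 note: firefly luciferase made from a UUG start codon reports start codon fidelity; reporter light over untreated wells divided by growth signal over untreated wells; some hits fall short of that in this replicate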
HIV Env fusion: inhibitors of HIV-1 Env-driven cell-cell fusion, primary screen, HeLa-JRFL effector, CEM21 target cells, luciferase; inhibition, % at 12.3 µM; AID 651610, 2012; hit rate 1.1% among 360,000;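 active = mean replicate inhibition score of at least 50 and every replicate individually at or above 50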;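 note: 0% = plate neutral controls and 100% = maraviroc near 300 nM; one replicate is shown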
CSC inhib: cancer stem cell viability inhibitors, primary screen, luminescence; cancer stem cell-like cells viability; hit rate 1.1% among 300,000; inhibition, % at 7.5 µM;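 active = mean at 75% or more and at least half the replicates too; tested in HMLE shEcad cells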;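 note: 0% = median of negative and 100% = median of positive control wells; the first replicate is given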
eIF4H FP inh: human eIF4H binding inhibitors, primary screen, translation initiation inhibitor project, biochemical, uHTS, fluorescence polarization. inhibition, % at 35 µM. eIF4H fluorescence polarization binding assay. hit rate 0.94% among 290,000;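 active = 50% or more with normal probe brightness, or confirmed in later tests; about a fifth of its hits are not listed in these tables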;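 note: calls also rest on retests at 20 µM and on dose response follow-up; 0% = protein and probe with vehicle and 100% = probe without protein; strong numbers were not always called active; many hits fall short of the cut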
PABP FP inh: PABP poly(A) RNA binding inhibitors, primary screen, biochemical, fluorescence polarization, uHTS; hit rate 1% among 290,000; inhibition, % at 35 µM; AID 2014, 2009;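 active = 50% or more with normal probe brightness, or confirmed in later tests; about a fifth of its hits are not listed in these tables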;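 note: calls also rest on retests at 20 µM and on dose response follow-up; controls were probe without protein and protein plus probe with vehicle; some compounds called inactive have numbers as strong as hits; many hits fall short of the cut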
Target sequence (P11940 whole entry, looked up): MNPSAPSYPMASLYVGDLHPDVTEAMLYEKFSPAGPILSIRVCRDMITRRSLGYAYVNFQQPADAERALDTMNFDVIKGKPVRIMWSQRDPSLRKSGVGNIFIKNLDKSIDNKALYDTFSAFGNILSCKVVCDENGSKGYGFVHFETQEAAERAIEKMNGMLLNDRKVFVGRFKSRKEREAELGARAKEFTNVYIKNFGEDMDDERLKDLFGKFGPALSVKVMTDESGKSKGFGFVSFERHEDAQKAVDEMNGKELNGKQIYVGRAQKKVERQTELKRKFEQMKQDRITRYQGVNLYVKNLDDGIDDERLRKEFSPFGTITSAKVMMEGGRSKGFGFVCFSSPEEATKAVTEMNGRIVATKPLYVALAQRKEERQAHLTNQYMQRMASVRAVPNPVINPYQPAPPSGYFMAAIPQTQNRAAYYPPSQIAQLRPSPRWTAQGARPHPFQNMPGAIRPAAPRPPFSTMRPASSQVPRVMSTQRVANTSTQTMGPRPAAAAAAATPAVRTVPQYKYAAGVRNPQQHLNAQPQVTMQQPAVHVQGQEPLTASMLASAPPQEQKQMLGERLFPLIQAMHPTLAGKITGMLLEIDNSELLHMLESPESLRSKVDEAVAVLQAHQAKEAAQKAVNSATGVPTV
eIF4H FP inh retest: recorded beside eIF4H FP inh, whose call it bears; inhibition, %; compound at 20 µM; confirmation average;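 mean of two retest wells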
PABP FP inh retest: also measured in PABP FP inh; calls as there; inhibition, %; compound at 20 µM; confirmation repeats;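 mean of two retest wells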
MT1-MMP act inh RFP: also measured in MT1-MMP act inh; calls as there; RFP signal change, %; measured here: RFP expression control read;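 0 = vehicle wells; hits needed this value within 50% of zero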
* hit, by the source's call; i = inactive; . = no result given; [ ] = another dose, or the depositor's remark. An excerpt; count on the stated rates, not on these rows.

SMILES	MT1-MMP act inh	MT1-MMP act inh RFP	Rce1 inh	Yeast UUG start	HIV Env fusion	CSC inhib	eIF4H FP inh	PABP FP inh	others
O=C(O)c1cc(Cl)c(Cl)cc1C(=O)N(Cc1ccccc1)Cc1ccccc1	-3	-1	i	-2	-15	8	1	6
COc1cc(OCc2ccccc2)c(C(=O)/C=C/c2ccc3c(c2)OCO3)c(OC)c1OC	-15	-15	i	-14	21	37	.	.
CCOC(=O)c1ccccc1NC(=O)CSc1nc2ccccc2c(=O)n1CCCN1CCOCC1	-5	-7	.	14	18	-7	.	.
Cn1c(=O)c2c(ncn2CC(=O)N/N=C/C(Cl)=C/c2ccccc2)n(C)c1=O	3	-3	i	.	-21	.	-8	-10
O=C(CNS(=O)(=O)c1ccc(Br)cc1)Nc1ccc2c(c1)OCCO2	1	3	i	-11	-17	.	-15	2
CCOC(=O)N1CCN(C(=O)CS(=O)(=O)Cc2nc(-c3cccc(OC)c3)oc2C)CC1	-1	-7	i	14	3	-7	-8	-1
COc1ccc(C(=O)OCCN=C2NS(=O)(=O)c3ccccc32)cc1OC	5	-1	i	-10	27	.	-12	-2
Cc1ccc(C(=O)NCCc2ccc(S(N)(=O)=O)cc2)o1	5	2	i	-17	-4	-17	-6	-3
CCCc1nc2ccccc2c(=O)n1/N=C/c1ccc(O)cc1O	2	6	i	-19	.	4	-1	-2
COc1ccc2nc(C(c3ccc(C)cc3)n3c(-c4ccccc4Br)nc4ccccc43)[nH]c2c1 (configuration not stated)	-30	2	.	-33	36	.	.	.
CCn1c(N)c(C(=O)COC(=O)CCc2nc3ccccc3c(=O)[nH]2)c(=O)[nH]c1=O	-1	3	.	-7	-11	1	.	.
Cc1ccccc1N1CCN(S(=O)(=O)c2ccc3oc(=O)ccc3c2)CC1	7	-11	i	-20	.	.	14	-1
O=C(NC12CC3CC(CC(C3)C1)C2)c1cccnc1Cl	-4	2	i	-15	-1	-13	-2	2
COc1ccc(Nc2nc(N)nc(C(F)(F)F)n2)c(OC)c1	-6	-2	i	-36	-375	2	-3	-4
CCOC(=O)c1c(C)n(C)c2ccc(OC(C)=O)cc12	15	-1	i	-8	.	3	-5	24
COC(=O)c1sccc1NC(=O)Nc1cc(C)ccc1OC	-8	-5	i	-12	-4	-2	0	-23
CCCCCCSc1ccc([C@H]2N[C@@](Cc3ccccc3)(C(=O)OC)[C@H]3C(=O)N(CC)C(=O)[C@@H]23)cc1	-5	-8	i	-14	-4	11	.	.
COc1cc(NS(=O)(=O)c2ccc(NC(=S)NC(=O)CC(C)C)cc2)nc(OC)n1	9	2	i	-7	-21	12	-1	-5
CC(=O)Nc1ccc2c(c1)OCO2	-2	3	i	.	-4	.	-10	0
CCC(=O)N(Cc1cc(=O)[nH]c2ccccc12)c1ccc(C)cc1	1	1	i	-5	14	-13	2	-1
CCCCNC(=O)CCn1c(=O)c2ccccc2n(CC(=O)Nc2ccccc2OCC)c1=O	0	3	i	-22	.	-3	1	-5
CC1CN(C(=O)CCC(=O)NCc2cccnc2)c2ccccc2O1 (configuration not stated)	1	4	i	1	-7	.	-5	-2
Cn1nc(C(C)(C)C)c([N+](=O)[O-])c1C(N)=O	3	-1	i	-9	6	-4	-7	0
CCc1ccc(CNC(=O)CCS(=O)(=O)Cc2ccccc2F)cc1	1	0	i	-10	-22	6	-4	1
NC(=O)C1CCN(C(=O)C(Cc2ccccc2)NC(=O)c2ccccc2)CC1 (configuration not stated)	2	2	.	-4	.	-4	.	.
(further entries)
SMILES	MT1-MMP act inh	MT1-MMP act inh RFP	Rce1 inh	Yeast UUG start	HIV Env fusion	CSC inhib	eIF4H FP inh	PABP FP inh	others
COc1ccc(CCNC(=O)CNS(=O)(=O)c2ccc(Br)cc2)cc1	-2	3	i	-15	5	-11	.	.
C[C@H](CO)N1C[C@H](C)[C@@H](CN(C)S(=O)(=O)c2cccc(C#N)c2)OCc2cn(nn2)CCCC1=O	-1	2	.	-5	-18[16.7 µM]	.	.	.
CC1CCCCN1C(=O)CNCC1CCCO1 (configuration not stated)	2	5	i	.	-33	-15	8	-5
CCn1cnc2sc(C(=O)Nc3ccc4c(c3)OCO4)c(C)c2c1=O	2	4	i	-8	.	-9	14	3
O=C(Nc1ccncc1)c1ccc(Cl)c([N+](=O)[O-])c1	-1	-4	i	-3	11	3	12	-12
CC1=C(C(=O)Nc2ccccc2C(=O)N2CCN(c3ccccc3)CC2)SCCO1	0	-3	.	-8	-13	.	.	.
Oc1ccc(/C=N/n2c(C3CCCCC3)n[nH]c2=S)c(O)c1	3	4	i	-15	8	-4	2	-1
CCN(CC)S(=O)(=O)c1ccc(N/N=C/c2cccnc2)nc1	-1	-3	i	-14	-11	8	12	-4
Cn1ccnc1SCC(=O)Nc1ccc2c(c1)OCO2	-1	1	i	.	0	-8	87	-3	eIF4H FP inh retest=-10;PABP FP inh retest=0
CC(=O)c1cccc(NS(=O)(=O)c2c(C)noc2C)c1	-2	3	i	-8	-40	5	-2	-4
COc1ccc(S(=O)(=O)N2CCOCC2)cc1C(C)C	-4	7	i	-15	-8	2	-7	4
Cc1cccc(-n2ncc3c(NCc4ccccc4)ncnc32)c1	-4	-10	i	8	-385	57	-7	-2
C=CCNC(=O)CN1C2CCCC1CC(NC(=O)c1ccccc1C)C2 (configuration not stated)	1	0	i	-26	-52	.	-3	3
O=C(O)c1cc(-c2ccc(Cl)cc2)n(-c2ccc(Cl)cc2)n1	0	-2	i	.	6	1	-19	-5
CC(=O)c1ccc(NC(=O)c2cc(CC(C)C)on2)cc1	-1	4	i	-12	.	-11	6	-4
CCS(=O)(=O)c1nc(S(=O)(=O)c2ccc(C)cc2)c(N2CCCC(C)C2)s1 (configuration not stated)	-2	-1	i	7	-3	0	4	14
Cc1ccc2nc(C)c(C(=O)NN=C3CCN(C)CC3)n2c1	0	3	i	.	-4	-9	-10	4
COc1cc(-c2noc(CCCC(=O)NC3CCCCC3)n2)cc(OC)c1OC	5	-3	i	-13	.	.	2	-7
CCC1=[N+](CC(=O)c2ccc(C)cc2)CCn2cccc21	-14	-1	.	-11	-78	1	29	14
CCOC(=O)c1ccc(Nc2nnc(C)c3ccccc23)cc1	5	1	i	-8	-31	3	-4	12
COc1ccc(S(=O)(=O)N2CCC3(CC2)OCCO3)cc1	1	1	i	-14	17	1	7	-9
Cn1c(SCC(=O)N2CCN(Cc3ccccc3)CC2)nnc1-c1ccncc1	0	1	i	-9	-8	-3	-2	8
CN1CCN(CCCCOc2cccc3ccccc23)CC1	3	3	i	-17	4	34	12	18
Cc1nn(C)cc1/C=N/NC(=O)c1sc2ccccc2c1Cl	-1	-2	i	-29	-129	-5	5	-4
[O-][N+](=Cc1ccccc1)CC1(O)CCCCC1	4	6	.	-7	-23	.	.	.

The final 3 compounds of the part above lead into the next:
SMILES	MT1-MMP act inh	MT1-MMP act inh RFP	Rce1 inh	Yeast UUG start	HIV Env fusion	CSC inhib	eIF4H FP inh	PABP FP inh	others
CN1CCN(CCCCOc2cccc3ccccc23)CC1	3	3	i	-17	4	34	12	18
Cc1nn(C)cc1/C=N/NC(=O)c1sc2ccccc2c1Cl	-1	-2	i	-29	-129	-5	5	-4
[O-][N+](=Cc1ccccc1)CC1(O)CCCCC1	4	6	.	-7	-23	.	.	.
CC12CC(NC(=O)N1c1cccc(C(=O)NCc3ccc4c(c3)OCO4)c1)c1cc(Cl)ccc1O2 (configuration not stated)	-5	-12	i	-14	.	17	-9	5
Cc1ccc(C)c(N/C=C(\C#N)c2nc3ccccc3o2)c1	2	5	i	-21	.	-3	.	.
C=CC(COCc1ccccc1)N([C@@H](Cc1ccccc1)C(=O)OC)S(=O)(=O)c1ccccc1Br (some centres not stated)	-7	-15	.	-23	36	11	.	.
COc1ccc(CN(C)C(=O)c2ccc(NS(=O)(=O)c3ccc4[nH]c(=O)[nH]c4c3)cc2)c(OC)c1OC	1	4	.	11	-3	0	.	.
CCCOc1ccc(/C(O)=C2/C(=O)C(=O)N(CCCn3ccnc3)C2c2ccco2)cc1 (configuration not stated)	0	0	i	-20	-32	13	-4	-7
Cc1noc(NS(=O)(=O)c2ccc(NC(=O)C34CC5CC(C3)CC(n3cnc(Br)n3)(C5)C4)cc2)c1C	3	5	i	-10	-2	-7	2	1
Cc1cccc[n+]1CCCCCCCCCC[n+]1ccccc1C	-2	2	i	2	-3	-10	-1	7
O=C(N/N=C/c1ccc([N+](=O)[O-])o1)c1cc(-c2ccc(-c3ccccc3)cc2)nc2ccccc12	16	7	i	.	i	78*	58	-6	eIF4H FP inh retest=26;PABP FP inh retest=22
Cn1c(C(=O)OC(C(=O)NCC2CCCO2)c2cccnc2)cc2sccc21 (configuration not stated)	0	-2	i	.	1	-11	-7	9
N#C/C(=C\c1c(Cl)cccc1Cl)c1nc2ccccc2[nH]1	-2	-4	i	-24	11	7	-8	-4
O=C(CCC(=O)Nc1cccc(Cl)c1)N/N=C/c1cc([N+](=O)[O-])ccc1O	-1	-1	i	.	10	14	19	19
COc1cc([N+](=O)[O-])ccc1NC(=S)NNC(=O)CCC(=O)Nc1ccccc1Cl	5	-1	i	-7	-15	-3	-4	0
CCS(=O)(=O)NCCc1cc2ccc(C)cc2[nH]c1=O	0	-1	i	-15	.	4	-4	-4

In the list so far, 7 contain an NH in an aromatic ring:
SMILES	MT1-MMP act inh	MT1-MMP act inh RFP	Rce1 inh	Yeast UUG start	HIV Env fusion	CSC inhib	eIF4H FP inh	PABP FP inh	others
COc1ccc2nc(C(c3ccc(C)cc3)n3c(-c4ccccc4Br)nc4ccccc43)[nH]c2c1 (configuration not stated)	-30	2	.	-33	36	.	.	.
CCn1c(N)c(C(=O)COC(=O)CCc2nc3ccccc3c(=O)[nH]2)c(=O)[nH]c1=O	-1	3	.	-7	-11	1	.	.
CCC(=O)N(Cc1cc(=O)[nH]c2ccccc12)c1ccc(C)cc1	1	1	i	-5	14	-13	2	-1
Oc1ccc(/C=N/n2c(C3CCCCC3)n[nH]c2=S)c(O)c1	3	4	i	-15	8	-4	2	-1
COc1ccc(CN(C)C(=O)c2ccc(NS(=O)(=O)c3ccc4[nH]c(=O)[nH]c4c3)cc2)c(OC)c1OC	1	4	.	11	-3	0	.	.
N#C/C(=C\c1c(Cl)cccc1Cl)c1nc2ccccc2[nH]1	-2	-4	i	-24	11	7	-8	-4
CCS(=O)(=O)NCCc1cc2ccc(C)cc2[nH]c1=O	0	-1	i	-15	.	4	-4	-4
